# Screening results as filed in PubChem BioAssay.
# HIV Env fusion: inhibitors of HIV-1 Env-driven cell-cell fusion, primary screen, HeLa-JRFL effector, CEM21 target cells, luciferase. inhibition, % at 12.3 µM. 360,000 compounds, 1.1% hits;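 active = mean replicate inhibition score of at least 50 and every replicate individually at or above 50; inconclusive = only one of the two criteria met; inactive = mean below 50 and not all replicates reaching 50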;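 note: 0% = plate neutral controls and 100% = maraviroc near 300 nM; one replicate is shown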
# PABP polyA inh: PABP poly(A) RNA binding inhibitors, primary screen, biochemical, fluorescence polarization, uHTS. 290,000 compounds, 1% hits. AID 2014, 2009. inhibition, % at 35 µM. Polyadenylate-binding protein 1 (Homo sapiens), P11940;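 active = 50% or more with normal probe brightness, or confirmed in later tests; inconclusive = above 50% with abnormal brightness, or retests that disagree; inactive = below 50% or failed in later tests; about a fifth of its hits are not listed in these tables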;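 note: calls also rest on retests at 20 µM and on dose response follow-up; controls were probe without protein and protein plus probe with vehicle; some compounds called inactive have numbers as strong as hits; many hits fall short of the cut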
# Target sequence (P11940 whole entry, looked up): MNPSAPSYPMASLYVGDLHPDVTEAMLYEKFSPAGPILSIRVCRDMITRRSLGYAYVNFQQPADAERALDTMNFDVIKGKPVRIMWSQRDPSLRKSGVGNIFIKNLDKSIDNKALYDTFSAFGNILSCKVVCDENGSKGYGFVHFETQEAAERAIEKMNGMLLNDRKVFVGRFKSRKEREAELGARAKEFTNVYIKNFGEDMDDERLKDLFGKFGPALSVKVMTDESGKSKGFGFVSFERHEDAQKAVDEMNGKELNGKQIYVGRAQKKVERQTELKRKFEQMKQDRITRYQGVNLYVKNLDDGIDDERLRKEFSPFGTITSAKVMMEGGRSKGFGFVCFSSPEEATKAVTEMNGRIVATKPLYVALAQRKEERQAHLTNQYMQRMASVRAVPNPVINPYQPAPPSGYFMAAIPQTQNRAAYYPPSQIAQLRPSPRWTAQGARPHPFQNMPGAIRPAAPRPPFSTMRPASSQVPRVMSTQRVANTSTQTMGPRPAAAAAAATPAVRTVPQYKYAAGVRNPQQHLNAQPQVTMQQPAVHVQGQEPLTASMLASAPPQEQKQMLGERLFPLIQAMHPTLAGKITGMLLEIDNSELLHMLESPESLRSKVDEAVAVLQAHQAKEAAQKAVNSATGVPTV
# MT1-MMP act inh: blockers of MT1-MMP proenzyme processing, primary screen, HT1080 RFP-PRO-GFP cells, GFP/RFP fluorescence; 360,000 compounds, 0.061% hits; AID 651647, 2012; GFP/RFP ratio fluorescence, overnight; percent of plate control window, DMSO zero; GFP/RFP ratio change, % at 20 µM;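 active = GFP/RFP ratio change of at least 30% with cell ATP level not reduced by more than half and red fluorescence within 50% of control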; note: strong numbers were not always called active
#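 Assay system: HT1080 RFP-PRO-GFP cells | Dosing: 20 µM single dose, 1% DMSO | Incubation: Cells overnight before dosing, compound overnight, 37 °C, 5% CO2 | Evaluation: GFP/RFP fluorescence ratio | Control set: DMSO-only wells and HT1080 RFP-L50D-GFP cell wells as references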
# Yeast UUG start: modulators of yeast start codon fidelity, primary screen, whole organism, S. cerevisiae, single point, plate reader. AID 602363, 2012. activity score, % at 18.7 µM. 350,000 compounds, 0.13% hits. S. cerevisiae UUG-firefly luciferase reporter, luminescence/redox ratio;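 active = replicate mean at a twofold rise or more, about +100% in these data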;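 note: firefly luciferase made from a UUG start codon reports start codon fidelity; reporter light over untreated wells divided by growth signal over untreated wells; some hits fall short of that in this replicate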
# CSC inhib: cancer stem cell viability inhibitors, primary screen, luminescence | cancer stem cell-like cells viability | inhibition, % at 7.5 µM | 300,000 compounds, 1.1% hits | AID 2717, 2010;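 active = mean at 75% or more and at least half the replicates too; inconclusive = mean and replicates disagree; tested in HMLE shEcad cells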;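 note: 0% = median of negative and 100% = median of positive control wells; the first replicate is given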
# eIF4H inh: human eIF4H binding inhibitors, primary screen, translation initiation inhibitor project, biochemical, uHTS, fluorescence polarization; eIF4H fluorescence polarization binding assay; inhibition, % at 35 µM; 290,000 compounds, 0.94% hits;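 active = 50% or more with normal probe brightness, or confirmed in later tests; inconclusive = above 50% with abnormal brightness, or retests that disagree; inactive = below 50% or failed in later tests; about a fifth of its hits are not listed in these tables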;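 note: calls also rest on retests at 20 µM and on dose response follow-up; 0% = protein and probe with vehicle and 100% = probe without protein; strong numbers were not always called active; many hits fall short of the cut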
# Rce1 inhib: yeast Rce1p protease inhibitors, primary screen, biochemical, fluorescence, cell-free homogeneous | CAAX prenyl protease 2 (Saccharomyces cerevisiae (strain ATCC 204508 / S288c)), Q03530 | yeast membranes, quenched prenylated peptide cleavage fluorescence | calls only | 290,000 compounds, 0.27% hits | AID 2563, 2010;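 active = fall in fluorescence gain of 50% or more versus controls, with final raw signal at or below 3038400; inconclusive = same 50% fall but final raw signal above 3038400; inactive = fall in fluorescence gain under 50%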;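 note: plate controls were neutral control wells for no effect and wells lacking membranes for full effect; tested at 10 µM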
# eIF4H inh retest: also measured in eIF4H inh; calls as there; inhibition, %; compound at 20 µM; confirmation average;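 mean of two retest wells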
# PABP polyA inh retest: second read-out of PABP polyA inh, no call of its own (marks repeat the call); inhibition, %; compound at 20 µM; confirmation repeats;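 mean of two retest wells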
# MT1-MMP act inh RFP: recorded beside MT1-MMP act inh, whose call it bears; RFP signal change, %; measured here: RFP expression control read;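 0 = vehicle wells; hits needed this value within 50% of zero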
# * = called active by the depositor; i = inactive; ? = inconclusive; nt = no result given; & = joins results of further samples. A portion of the library, so the mix of outcomes need not match the whole.
SMILES,HIV Env fusion,PABP polyA inh,MT1-MMP act inh,MT1-MMP act inh RFP,Yeast UUG start,CSC inhib,eIF4H inh,Rce1 inhib,others
Cc1onc(-c2c(F)cccc2Cl)c1C(=O)NCc1ccc(F)cc1,16,-6,0,2,nt,-5,-2,i,
COc1ccc(CCN2CC(C(=O)N(C)CCn3nc(C)cc3C)CCC2=O)cc1 (stereo not drawn),-2,-8,2,5,-5,-7,-7,i,
O=[N+]([O-])c1ccc(N2CCCC2)nc1,-4,9,-3,2,-16,-1,0,i,
COc1cc(CNc2nc3ccccc3n2Cc2ccccc2)ccc1O,-2,nt,-2,0,-20,nt,nt,nt,
CCOc1ccc(NC(=O)Cn2nnc(-c3ccccc3NC(=O)c3cccs3)n2)cc1,nt,2,6,4,-10,6,-11,i,
Cc1ccc(NC(=O)CNC(=O)Cc2cccc3ccccc23)nc1,nt,5,1,7,-14,-14,12,i,
CC(C)(C)c1cc(C(=O)NNS(=O)(=O)c2ccccc2)n[nH]1,3,0,1,-3,nt,8,-6,i,
Fc1ccc(-n2cc(-c3ccccc3)c3c(N4CCOCC4)ncnc32)cc1,39,4,-16,-3,nt,54,0,i,
CCCCNC(=O)C1CCCN1S(=O)(=O)c1cccc2nsnc12 (stereo not drawn),-10,-8,-2,2,-4,-3,-2,i,
COCc1cc(C)nc(N2CCNCC2)c1C#N,-37,6,3,6,-16,-2,2,i,
CCN(C(=O)COC(=O)c1cc2c(s1)CCCCC2)C1CCS(=O)(=O)C1 (stereo not drawn),-17,-8,0,4,17,6,57,i,eIF4H inh retest=-8;PABP polyA inh retest=18
Cc1nc(=O)c(-c2ccccc2)c(C)n1-c1ccccc1Cl,-1,nt,-2,1,7,-12,nt,i,
CC(=O)c1cccc(NC(=O)c2cccc(NC(=O)c3ccco3)c2)c1,-33,5,6,-3,-18,nt,2,i,
CCc1nc(CN2CCN(Cc3ccc(F)c(F)c3)C(CCO)C2)c(C)[nH]1 (stereo not drawn),8,1,6,8,nt,11,10,i,
O=C(NCCc1ccncc1)Nc1ccc(Cl)cc1,-26,-1,-9,-2,-6,2,-3,i,
COc1ccc(C(=O)C2CCCN(Cc3nc4ccccc4nc3C)C2)cc1OC (stereo not drawn),-3,0,1,1,-1,1,-8,i,
CSCCC(NC(=O)c1ccco1)C(=O)N1CCC(C(N)=O)CC1 (stereo not drawn),-4,nt,1,-2,nt,-5,nt,i,
O=C(NCc1cccnc1)c1csc([C@@H]2O[C@H](CO)[C@H](O)[C@H](O)[C@H]2O)n1,-3,nt,-7,1,-7,nt,nt,nt,
COc1cc(NC(=O)c2ccc(-c3cccc(F)c3)o2)ccc1NC(=O)c1ccccc1Cl,1,nt,13,-1,-11,nt,nt,nt,
COc1cccc(CN2CC(C(=O)NCc3ccc(C)o3)CCC2=O)c1 (stereo not drawn),-3,8,-10,1,1,nt,-3,i,
Cc1ccc(S(=O)(=O)N2CCCCC2)cc1NC(=O)COC(=O)Cc1cccc2ccccc12,nt,-3,5,4,nt,-3,0,i,
O=C(COC(=O)c1ccc2c(c1)OCCO2)Nc1ccccc1C(F)(F)F,-2,nt,10,10,-13,nt,nt,nt,
COc1ccc2nc(NC(=O)CSc3nc(C)cc(=O)[nH]3)sc2c1,-24,-2,2,4,-12,-10,-12,i,
CC(=O)Nc1ccc(S(=O)(=O)NCC2CCC(C(=O)NCCCN3CCCC3=O)CC2)cc1 (stereo not drawn),nt,-1,4,4,-8,-15,-8,i,
Cc1cc(C)cc(OCC(=O)NNC(=O)c2cc3ccccc3o2)c1,6,1,1,4,-21,-37,-7,i,
Nc1c([N+](=O)[O-])cc2c3c(cccc13)CC2,-27,nt,6,3,-14,nt,nt,nt,
CCc1ccc(N2C(=O)C(Cl)=C(N3CCOCC3)C2=O)cc1,-19,2,8,3,nt,3,-9,i,
Cn1cccc1C(=O)C(=O)Nc1cc(Cl)cc(Cl)c1,nt,10,-3,-2,-8,11,-3,i,
O=C(Nc1cccc(C(F)(F)F)c1)c1csc([C@@H]2O[C@H](CO)[C@@H](O)[C@H]2O)n1,15,nt,2,1,-40,nt,nt,nt,
O=C(CSc1nc2[nH]ncc2c(=O)[nH]1)Nc1cc(C(F)(F)F)ccc1Cl,14,nt,8,-9,13,nt,nt,nt,
COc1cccc(-c2nnn(CC(=O)N(CC(C)C)C3CCS(=O)(=O)C3)n2)c1 (stereo not drawn),-5,nt,-6,0,-5,-13,nt,i,
COC(=O)C1=C(C)N(CC2CCCO2)C(=O)/C1=C\c1ccc(O)cc1 (stereo not drawn),nt,5,0,4,-2,-7,10,i,
COc1nc(NCCc2ccc(OC)c(OC)c2)nc(NC(C)(C)CO)n1,-63,-9,5,3,-19,-10,-8,i,
Cc1ccc(S(=O)(=O)N2CCN(S(=O)(=O)c3cccs3)CC2)cc1,19,14,0,2,-1,-1,7,i,
Clc1ccc(C(Cn2ccnc2)OCc2c(Cl)cccc2Cl)c(Cl)c1 (stereo not drawn),-3,nt,-15,-26,-36,22,nt,nt,
COC(=O)c1sc(NC(=O)c2cc(C)on2)nc1C,14,13,2,2,-9,-8,-4,i,
Cc1ccc(C(=O)NCCNc2ccc(Cl)cc2[N+](=O)[O-])o1,-8,-4,15,2,4,-15,4,i,
C[C@H](CO)N1C[C@H](C)[C@H](CN(C)S(=O)(=O)c2cccs2)OCc2cnnn2CCCC1=O,15,nt,-1,3,-1&-14,nt,nt,nt,
CCOc1ccc(-c2nnc(NC(=O)Cc3cc(OC)c(OC)c(OC)c3)o2)cc1,4,-2,0,-1,-19,6,13,i,
COc1ccc(/C=N/NC(=O)c2cc[n+]([O-])cc2)cc1O,14,-3,1,2,-20,-10,15,i,
Cn1c(NC(=O)c2ccc(Br)o2)cc(=O)n(C)c1=O,nt,-3,-5,-1,-2,4,5,i,
O=C(Nc1ccc(C(=O)O)cc1)/C(=C\c1ccco1)NC(=O)c1ccc(Br)o1,3,17,-8,0,nt,-8,28,i,
CCOc1cc(/C=N/N=C2/NC(=O)C(CC(=O)O)S2)ccc1OS(=O)(=O)c1ccc(C)cc1 (stereo not drawn),12,14,1,6,nt,nt,0,i,
O=C1OC(Nc2nc3ccccc3s2)c2ccccc21 (stereo not drawn),-93,4,3,2,-12,4,-3,i,
Cc1cc2oc(=O)cc(CN3CCOCC3)c2cc1C,-12,-2,-2,1,2,-5,-3,i,
CC1CCN(Cc2ccc(-c3nn[nH]n3)cc2)CC1,nt,-5,-1,0,-5,-6,-4,i,
CCCn1c(Cc2ccccc2)nnc1SC(C)C(=O)NC1CC1 (stereo not drawn),13,nt,1,6,nt,-3,nt,nt,
OC1(c2ccccc2F)CCN(Cc2nnnn2Cc2ccc(F)cc2)CC1,-12,-2,1,1,17,-14,1,i,
CCCCOn1c(C)c(C(=O)OCC)c2c3nonc3ccc21,-100,nt,3,-3,-18,-9,nt,i,
Cc1cccc(NS(=O)(=O)c2cccc(C(=O)N3CCC3)c2)c1,-5,nt,-2,0,-2,nt,nt,nt,
CCOc1ccccc1/C=N/N1CCN(Cc2ccccc2)CC1,8,2,-5,-5,-10,-14,-11,i,
COC(=O)c1c(C(=O)OC)c(-c2ccccc2)n2c1CS(=O)C2 (stereo not drawn),nt,1,0,-1,-10,-6,-4,i,
CCNc1nc(NCC)nc(OCCOC(=O)COc2ccc(Cl)cc2Cl)n1,nt,8,1,4,-5,-6,35,i,
COc1cc(C(=O)Oc2cc(C)[nH]c(=O)c2[N+](=O)[O-])cc(OC)c1OC,-27,0,0,4,-8,-9,-5,i,
Cc1ccc(CCC(=O)Nc2ncc(Cc3cccc(Cl)c3Cl)s2)o1,-146,10,12,-2,-12,nt,-4,i,
CC(C)(C)OC(=O)N1CCN(CCNC(=O)c2ccccc2)CC1,-4,2,3,0,7,-7,6,i,
Cn1c(=O)c2c(ncn2CC(=O)NC(C)(C)C)n(C)c1=O,nt,4,7,7,1,-8,-8,i,
Cc1ccc2nc3c(cc(C(N)=S)c(=N)n3CCCOC(C)C)c(=O)n2c1,nt,?,-53,-6,-16,nt,?,i,
COc1ccc(CC(N)c2csc(Nc3ccc(S(C)(=O)=O)cc3)n2)cc1 (stereo not drawn),5,nt,1,2,-5,nt,nt,nt,
CCOc1ccc2[nH]c(=O)c(CN(CCc3ccccc3)C(=O)c3cnccn3)cc2c1,nt,3,4,1,-1,-1,-8,i,
# More entries
SMILES,HIV Env fusion,PABP polyA inh,MT1-MMP act inh,MT1-MMP act inh RFP,Yeast UUG start,CSC inhib,eIF4H inh,Rce1 inhib,others
CCN(C[C@H]1N[C@@](Cc2ccccc2)(C(=O)OC)[C@H]2C(=O)N(Cc3ccccc3)C(=O)[C@@H]12)C(=O)c1ccc(F)cc1,-115,nt,3,-6,-25,nt,nt,nt,
Cc1cccc(-c2n[nH]c(=S)n2/N=C/c2cccs2)c1,-4,10,1,0,-20,-15,1,i,
C#CC[N+]1(CC#Cc2ccccc2)CCCC1,nt,3,2,2,-13,-1,4,i,
CCn1c(=NC(=O)CCS(=O)(=O)c2ccccc2)sc2cccc(OC)c21,32,-12,4,-23,-12,-6,-16,i,
Cc1nc2ccccc2c2nc(N)nn12,nt,1,5,3,-5,-18,10,i,
O=C(Nc1ccc(F)c(F)c1)c1cnc(-c2ccccc2)nc1-c1ccccc1,-48,-4,-1,1,-7,1,-4,i,
O=C(COc1ccccc1Cl)NCc1ccncc1,-19,3,1,1,1,0,-7,i,
Cc1ccc(CCN2CC(C(=O)NC3CCCCC3)CC2=O)cc1 (stereo not drawn),-7,nt,0,2,-12,-8,nt,i,
Cc1ccc(S(=O)(=O)N2CCOCC2)cc1NC(=O)COC(=O)c1ccc(Br)cc1,7,nt,-1,1,0,nt,nt,nt,
Cc1c(Cl)cccc1NC(=O)CSc1sc2c(O)cc(=O)[nH]c2c1C#N,-4,16,0,2,-12,-4,9,i,
COc1cccc(N2CCN(Cc3nc4scc(-c5ccccc5)c4c(=O)[nH]3)CC2)c1,30,70*,-38,-10,nt,82*,79*,i,
O=C(COC(=O)c1ccc(S(=O)(=O)NCc2ccco2)cc1)Nc1ccc(OC(F)F)cc1,-17,0,-2,-2,-19,-12,12,nt,
Nc1ccc2oc(-c3ccc4nc[nH]c4c3)nc2c1,-132,-3,4,2,-27,-6,13,i,
CCn1c(=O)c(C(=O)NCCN2CCCCC2)c(O)c2ccccc21,-41,5,-2,-4,-9,5,8,i,
Cc1ccc(CSc2nnc(NC(=O)Cn3cnc4ccccc4c3=O)s2)cc1,-7,-7,1,0,nt,6,-12,i,
Cc1ccc(NC(=O)CSc2nnc(-c3cccs3)o2)cc1S(=O)(=O)N1CCCCC1,1,-8,-3,1,nt,-32,-2,i,
Cc1nc2sc(C(c3cccs3)N3CCN(c4ccccc4)CC3)c(O)n2n1 (stereo not drawn),7,-4,-2,3,-20,0,-6,i,
O=c1c2ccccc2nc(SCc2cccc(F)c2)n1C1CCCC1,nt,7,-7,-4,1,-4,-1,i,
CCOc1ccc(NC(=O)NCCN2CCN(c3ccccc3F)CC2)cc1,-3,-6,0,1,-5,-8,-7,i,
